TsaE inh – inhibitors of E. coli YjeE (TsaE); purified YjeE, fluorescence polarisation of a bound ADP probe; Potency, µM; P0AF67; 71,000 compounds, 0.05% hits; active = well fitted falling curve; inconclusive = weaker or top-dose-only fall, or a rising curve; inactive = flat or poorly fitted curve;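 further: top concentration of the series not given in the record; excess ADP was the control for the full effect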
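Purified YjeE (10 uM) with BODIPY Texas Red-labeled ADP probe (2 uM); compounds pin-transferred, 15 min at room temperature. Binding inhibition read as decreased fluorescence polarization; ADP titration as control.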
Bst PK mod – modulators of Bacillus stearothermophilus pyruvate kinase. Potency, µM. 51,000 compounds, 1.2% hits. partly purified Bacillus stearothermophilus pyruvate kinase, luminescence ATP production; ribose 5-phosphate activator present at AC10; in the data active means potency below about 11 µM; inconclusive means mostly about 12 µM to 25 µM; inactive means weaker than that;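 the screen sought inhibitors and activators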;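 further: potency means the concentration at half of the fitted maximal effect; scaled between full activation by ribose 5 phosphate and full inhibition by luteolin; about four in five hits inhibit and the cells do not say which; series up to 57 µM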
* hit, by the source's call; i = inactive; u = inconclusive; x = no result given; & = joins results of further samples. This is a subset. The share of hits here may be higher or lower than overall.

Values run as follows: TsaE inh, Bst PK mod
Cc1ccc(C)c(N2CCN(C(=O)CN3C(=O)c4ccccc4C3=O)CC2)c1
  i, >57
CC(C)CN1C(=O)c2ccc(C(=O)Nc3nccs3)cc2C1=O
  i, x
COCCCNCC(=O)Nc1ccc(OC(F)(F)F)cc1
  i, >57
COc1ccc(N2CCN(C(=O)C(Cc3ccccc3)n3cccc3)CC2)cc1 (stereo not drawn)
  i, x
COc1ccc(-c2nnc(SCC(=O)N3CCC(Cc4ccccc4)CC3)o2)cc1OC
  i, >57
O=C(CN1C(=O)COc2ccccc21)N(Cc1ccc2c(c1)OCO2)CC1CCCO1 (stereo not drawn)
  i, >57
COC(=O)c1ccc(C(NC(=O)OCc2ccccc2)/C(=C/[C@@H](C)C(=O)NCc2nc3ccccc3s2)c2cccnc2)cc1 (stereo partly drawn)
  i, x
O=S(=O)(c1cccc2ccccc12)N1CCSC1
  i, x
O=c1c(-c2ccc(F)cc2)nc2cnc(N3CCNCC3)nc2n1Cc1ccc(F)cc1
  i, x
COc1ccc(CCNS(=O)(=O)c2cccc(F)c2)cc1OC
  i, >57

Next section; it opens with the two that closed the last part.
Values run as follows: TsaE inh, Bst PK mod
O=c1c(-c2ccc(F)cc2)nc2cnc(N3CCNCC3)nc2n1Cc1ccc(F)cc1
  i, x
COc1ccc(CCNS(=O)(=O)c2cccc(F)c2)cc1OC
  i, >57
CCc1cccc(OCCCCNCCOC)c1
  i, x
COC(=O)Oc1nsnc1N1CCOCC1
  i, >57
O=C(Cc1ccccc1)NCCCN1CCN(CCCNC(=O)Cc2ccccc2)CC1
  i, >57
COc1ccc(C2CC(c3cccs3)n3nc(N)nc3N2)cc1 (stereo not drawn)
  i, x
COC(=O)[C@]1(C)CCC(c2ccc(C)cc2)=C(CC(=O)O)C1
  i, x
CNc1ncncc1-c1ccccc1OC
  i, x
CN(C)CCCNC(=O)c1ccc(-c2ccccc2)cc1
  i, >57
CC(=O)Nc1ccc(-c2nnc(SCC(=O)n3c4c(c5ccccc53)CCCC4)n2C)cc1
  i, >57
CC(=O)c1c(C)nn(CCC(=O)O)c1C
  i, >57
CCc1ccccc1-n1c(SCC(=O)NC)nnc1-c1cccnc1
  i, >57
COc1cc2c(cc1NC(=O)CN1CCN(S(=O)(=O)c3ccc(F)cc3)CC1)oc1ccccc12
  i, >57
Cn1c(=O)c2c(nc(SCC(=O)OCc3ccccc3)n2C)n(C)c1=O
  i, >57
CC(C)NS(=O)(=O)c1cc(C(=O)O)ccc1Cl
  i, >57
CSc1ccc(S(=O)(=O)NCCOc2ccccc2C)cc1
  i, >57
CCCn1nnnc1SCC(=O)Nc1nnc(CC)s1
  i, >57
CCOCCCNC(=O)CN1C(=O)CSc2cc(S(=O)(=O)N3CCCCCC3)ccc21
  i, >57
Clc1cccc(Cl)c1COc1ccccn1
  i, 9.84*
Cc1ccc(NC(=O)c2ccccc2)s1
  i, 8.29*
CC(=O)c1ccc(NS(=O)(=O)c2ccccc2)cc1
  i, x
CC(NC(=O)Cc1ccc(F)cc1)C(c1cccs1)N1CCN(C)CC1 (stereo not drawn)
  i, >57
CC(=NCc1ccco1)c1c(C)[nH]n(-c2nc3ccccc3s2)c1=O
  i, x
CCOc1ccccc1NC(=O)CCSc1nc2n[nH]c(C)c2c(=N)n1-c1ccccc1Cl
  i, >57
CCCCN(CCCNC(=O)C1CCN(S(=O)(=O)CC)CC1)c1ccccc1
  i, >57
CC1(C)CC(n2c(=S)[nH]c3ccccc3c2=O)CCO1 (stereo not drawn)
  i, >57
CSc1nc(C)c2cc(C)oc2n1
  i, >57
O=C(Cn1cnnn1)Nc1ccccc1Cc1ccccc1
  i, >57
COc1cc(-c2cccs2)cc(=O)c2c(C)oc(C)c12
  i, >57
O=c1[nH]c(CN2CCN(c3ccccc3)CC2)nc2ccccc12
  i, >57
O=C1NC(c2ccccc2)(C(F)(F)F)SC2=NCCCN12 (stereo not drawn)
  i, >57
CCc1ccc(-c2nc(CN3CCC(C(=O)N4CCN(c5ccccn5)CC4)CC3)c(C)o2)cc1
  i, >57
Cc1csc(NC(=O)C(CC(C)C)NS(=O)(=O)c2ccc3c(c2)oc(=O)n3C)n1 (stereo not drawn)
  i, x
CCOC(=O)N1CCC(C(N)=O)CC1
  i, >57
CCOc1ccc(-c2cc(CCCC(=O)Nc3cc(OC)ccc3OC)no2)cc1
  i, >57
COc1ccc(Cc2nnc(NC(=O)c3cccs3)s2)cc1
  i, x
O=C(O)C1CCCCC1C(=O)Nc1nc(-c2cccs2)cs1 (stereo not drawn)
  i, >57
O=C(Cn1cnc2ccccc2c1=O)NCc1ccco1
  i, >57
CCCCn1c2nc3ccccc3nc2c2c(=O)n(C(C)CC)cnc21 (stereo not drawn)
  i, >57
O=C1CC(c2ccco2)CC2=C1C(c1ccccc1)n1nc(C(F)(F)F)nc1N2 (stereo not drawn)
  i, >57
COc1cccc(NS(=O)(=O)c2ccc3[nH]cc(C(=O)NC4CC4)c(=O)c3c2)c1
  i, >57
COc1ccc(C(CNC(=O)c2ccc(S(=O)(=O)N3CCOCC3)cc2)N2CCCCC2)cc1 (stereo not drawn)
  i, >57
COC(=O)C(Cc1ccccc1)NC(=O)CSc1nc(C)cc(=O)[nH]1 (stereo not drawn)
  i, x
Cc1ccc(-c2cc(C(=O)NCc3ccco3)c3ccccc3n2)o1
  i, x
Cc1onc(-c2c(F)cccc2Cl)c1C(=O)N1CCN(S(C)(=O)=O)CC1
  i, >57
COc1cc(NS(=O)(=O)c2ccc(N)cc2)ncn1
  i, >25.6&>25.6
CN(Cc1ccco1)C(=O)Cn1c(=O)oc2cc(S(=O)(=O)NCc3ccccc3)ccc21
  i, x
Cc1cc(C(=O)N2CCN(c3ncccn3)CC2)sc1-c1ccccc1
  i, >57
Nc1ccc(N=Nc2ccccc2)c(N)n1
  i, x
O=C(c1ccc(N2C(=O)CCC2=O)cc1)N1CCOCC1
  i, x
COc1cc(NS(=O)(=O)c2ccc(OC)c(C)c2C)c(OC)cc1Cl
  i, >57
O=C(C(NS(=O)(=O)c1cccc2nsnc12)c1ccccc1)N1CCN(c2ccccn2)CC1 (stereo not drawn)
  i, >57

Shown as comma-separated lines: 3 of the compounds above.
Compound,TsaE inh,Bst PK mod
Cc1cc(C(=O)N2CCN(c3ncccn3)CC2)sc1-c1ccccc1,i,>57
COc1cc(NS(=O)(=O)c2ccc(OC)c(C)c2C)c(OC)cc1Cl,i,>57
COc1cc(NS(=O)(=O)c2ccc(N)cc2)ncn1,i,>25.6&>25.6

Remaining list, next part:
Values run as follows: TsaE inh, Bst PK mod
CC1(C)CC2CC(C)(CN2S(=O)(=O)c2ccc(N)cc2)C1 (stereo not drawn)
  i, x
O=C(Nc1ccc(Cl)cc1)OCCn1nnnc1C(c1ccccc1)N1CCOCC1 (stereo not drawn)
  i, >57
Nc1nc(CN2CCN(c3ccccc3F)CC2)nc(Nc2ccccc2)n1
  i, >57
[N-]=[N+]=CC(=O)C(Cc1ccccc1)N1C(=O)c2ccccc2C1=O (stereo not drawn)
  i, >57
CCOc1cccc(-n2nnnc2-c2ccc(OC)cc2)c1
  i, >57
CCOC(=O)C(C)Sc1ncnc2nc[nH]c12 (stereo not drawn)
  i, >57
CC[C@@H](CS(=O)(=O)O)[N+](=O)[O-]
  i, x
CN1CCc2c(sc(/N=C/c3cccs3)c2C(N)=O)C1
  i, i
Cn1c(SC/C=C/c2ccccc2)nnc1-c1cccs1
  i, >57
O=C(CSc1nnc(CNc2ccccc2)o1)N1CCc2ccccc21
  i, >57
CCCc1[nH]nc2c1C(c1c(C)nn(-c3ccccc3)c1Cl)C(C#N)=C(N)O2 (stereo not drawn)
  x, >25.6
CCOCCCNC(=O)Cc1ccc(OC)c(OC)c1
  i, >57
CC1(C)Cc2ccccc2-c2nnc(-c3ccc(O)cc3)n21
  i, >57
COC(=O)c1ccc(COc2ccc(-c3nn[nH]n3)cc2)cc1
  i, >57
CC1=C(C(N)=O)C(c2ccc(C)o2)C(C(N)=O)=C(C)N1
  i, >57
COC(=O)[C@@]1(Cc2ccc(OC)cc2)[C@H]2c3cc(C(=O)N(C)C)n(Cc4nc5ccccc5[nH]4)c3C[C@H]2CN1C(=O)c1ccccc1
  i, x
Cc1nn(C(=O)c2ccoc2C)c(N)c1-c1ccccc1
  i, x
COc1ccc(C(=O)NCC(c2cccnc2)N2CCN(c3ccccc3)CC2)cc1OC (stereo not drawn)
  i, x
Cn1ccnc1C(O)c1cc(C(C)(C)C)c(O)c(C(C)(C)C)c1 (stereo not drawn)
  i, x
C=CCn1c(COc2ccccc2)nnc1SCC(=O)O
  i, >57
COc1ccc(N(C)C(=O)c2ccc3snnc3c2)cc1
  i, x
Cn1c(=O)c2c(nc(SCCNS(=O)(=O)c3ccccc3)n2C)n(C)c1=O
  i, x
Cc1cc(N2C(=O)c3ccc(C(=O)NCc4ccccc4)cc3C2=O)no1
  i, >57
O=C(NC1CCCCCCC1)c1ccc2c(c1)OCO2
  i, x
CC(=O)N1CCN(C(=O)CCc2nc3sc4c(c3c(=O)[nH]2)CCCC4)CC1
  i, x
CN1CCN(c2ncc3nc(-c4cc(F)cc(F)c4)c(=O)n(-c4ccccc4)c3n2)CC1
  i, x
Cc1c(Cl)cccc1NC(=O)CSCC(N)=O
  i, >57
O=C1N(CC(=O)N2CCc3ccccc32)CCN1Cc1ccc(Cl)cc1
  i, >57
Cc1nn(Cc2ccc(C(=O)N3c4ccc(F)cc4CCC3C)o2)c(C)c1Br (stereo not drawn)
  i, >57
Cc1cc2ccccc2cc(C)c1=O
  x, i
Cc1ccc(S(=O)(=O)NC2OC(=O)C(Cl)=C2Cl)cc1 (stereo not drawn)
  i, x
Cc1cc(NC(=O)CSc2ncn(-c3ccccc3)n2)no1
  i, >57
Cc1ccc(CN2CC34C=CC(O3)C(C(=O)NCc3ccc5c(c3)OCO5)C4C2=O)cc1 (stereo not drawn)
  i, >57
CCOC(=O)C1=C(C)NC2=C(C(=O)CC(C)(C)C2)C1c1ccc(N(C)C)cc1 (stereo not drawn)
  i, >57
COc1ccc(N2CCN(C(=O)c3ccc(N4C(=O)NC5CC4(C)Oc4ccccc45)cc3)CC2)cc1 (stereo not drawn)
  i, >57
CC1=C(C(=O)N2CCCCC2)C(c2cccs2)NC(=O)N1 (stereo not drawn)
  i, x
CCOCCCNC(=O)C(Cc1ccccc1)NC(=O)c1ccco1 (stereo not drawn)
  i, >57
COC(=O)Cn1cc(C(=O)C2CC2)c2ccccc21
  i, >57
COC(=O)c1ccc2c(c1)C(=O)N(C1CCCCC1)C2=O
  i, >57
C=CCNc1ncnc2ccccc12
  i, >57
O=C(O)c1ccc(N2C(=O)C3ON(c4ccccc4)C(c4ccccc4F)C3C2=O)cc1 (stereo not drawn)
  i, >57
Cc1cccc(N2C(N)=NC(N)=NC23CCCCC3)c1
  i, >57
CCCCC(CCC(=O)Nc1ccc(C(=O)OC)cc1)C(=O)O (stereo not drawn)
  x, >25.6
O=C(Cn1nnc(-c2ccncc2)n1)NCCc1ccccc1
  i, >57
c1ccc(Oc2nc(Oc3ccccc3)nc(N3CCOCC3)n2)cc1
  i, x
O=C(Nc1nccs1)C1CCCN1S(=O)(=O)c1cccc2cccnc12 (stereo not drawn)
  i, x
COc1ccccc1NC(=O)Cn1cnc2c(oc3ccccc32)c1=O
  i, x
Cc1ccc2c(c1)nnn2C1CCN(CC(=O)c2ccc(Cl)cc2)CC1
  i, >57
CS(=O)(=O)N(CC(=O)NCc1ccco1)c1cc(C(F)(F)F)ccc1Cl
  i, x
Cc1ccc(C2(c3ccc(C)cc3)NC(=O)N(Cc3c(C)noc3C)C2=O)cc1
  i, >57

(continued)
Values run as follows: TsaE inh, Bst PK mod
Cc1cc(N2C(=O)C3CC=CCC3C2=O)cc(C)c1Br (stereo not drawn)
  i, x
COc1ccc(NC(=O)C2CCN(c3nc(C)nc4c3CCC4)CC2)cc1
  i, >57
Cc1cccc2nc(CSc3nncn3-c3ccccc3)cn12
  i, >57
CCC(C)[C@H](NC(=O)NCc1cccs1)C(=O)OC (stereo partly drawn)
  i, >57
N=C(N)c1ccc(N)cc1
  i, x
CCOC(=O)/C=C1\CC(=O)Nc2cc(C)c(C)cc2N1
  i, >57
CNC(=O)CCc1nc(-c2ccc(C(C)(C)C)cc2)no1
  i, u
CCCN1C(=O)c2ccc(C(=O)NC3CCCCC3)cc2C1=O
  i, >57
CC(=O)C(Sc1ccc2nnc(-c3ccc(F)cc3)n2n1)C(C)=O
  i, x
Clc1ccc(-c2nn3cnnc3s2)c(Cl)c1
  i, 10.3*
COc1ccc(OC)c(NC(=O)C2CCCNC2=O)c1 (stereo not drawn)
  i, x
Cc1cc(-c2ccccc2)nc(SCc2ccc(C(=O)O)o2)n1
  i, >11.4
Nc1ncnc2c1ncn2[C@@H]1O[C@@H](C(=O)NC2CC2)[C@H](O)[C@@H]1O
  i, x
O=C(O)Cn1ncc2c1-c1ccoc1CC2
  i, x
CCOC(=O)N1CCC(NC(=O)Cn2ncc3c2-c2cc(C)ccc2OC3)CC1
  i, x
CCCCCCCC/C=C\CCCCCCCC(=O)NCCc1ccc(O)c(O)c1
  i, x

Source: PubChem (National Center for Advancing Translational Sciences (NCATS))
